# Compound activity deposited in PubChem BioAssay by National Center for Advancing Translational Sciences (NCATS).
# Six1-Eya2 inh: qHTS Assay for Inhibitors of the Six1/Eya2 Interaction; AlphaScreen GST-Six1/His-Eya2 binding, biochemical; hits give low values; control for the full effect not named in the record; activity change, % (test concentration not listed); 360,000 compounds, 0.56% hits; in the data active = activity change below about -65%; inconclusive = about -30% to -65%; inactive = above about -30%; also: % is scaled to controls: 0 for no effect and ±100 for the full control effect
#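 Homogeneous AlphaScreen proximity assay pairing GST-Six1 with His-tagged Eya2 (added as 5X mix: 250 nM and 500 nM) in 50 mM Tris pH 8.0, 300 mM NaCl, 1 mM TCEP. Glutathione donor and nickel acceptor beads; 1 h, 37 °C, dark.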
# TRPML1 ag: qHTS for Agonists of the Human Mucolipin Transient Receptor Potential 1 (TRPML1); 410,000 compounds, 0.12% hits; Mucolipin-1 (Homo sapiens), Q9GZU1; activation, % (no concentration beside the values); AID 624414, 2012; TRPML1-expressing cells, Ca2+ dye fluorescence, FDSS; host cell line not named in the record; reference of the full effect not given here; in the data active = activation above about 50%; inconclusive = about 30% to 50%; inactive = below about 30%; also: 0% is about no effect; the text of the record puts the active cut at 80%
# Target sequence (Q9GZU1 whole entry, looked up): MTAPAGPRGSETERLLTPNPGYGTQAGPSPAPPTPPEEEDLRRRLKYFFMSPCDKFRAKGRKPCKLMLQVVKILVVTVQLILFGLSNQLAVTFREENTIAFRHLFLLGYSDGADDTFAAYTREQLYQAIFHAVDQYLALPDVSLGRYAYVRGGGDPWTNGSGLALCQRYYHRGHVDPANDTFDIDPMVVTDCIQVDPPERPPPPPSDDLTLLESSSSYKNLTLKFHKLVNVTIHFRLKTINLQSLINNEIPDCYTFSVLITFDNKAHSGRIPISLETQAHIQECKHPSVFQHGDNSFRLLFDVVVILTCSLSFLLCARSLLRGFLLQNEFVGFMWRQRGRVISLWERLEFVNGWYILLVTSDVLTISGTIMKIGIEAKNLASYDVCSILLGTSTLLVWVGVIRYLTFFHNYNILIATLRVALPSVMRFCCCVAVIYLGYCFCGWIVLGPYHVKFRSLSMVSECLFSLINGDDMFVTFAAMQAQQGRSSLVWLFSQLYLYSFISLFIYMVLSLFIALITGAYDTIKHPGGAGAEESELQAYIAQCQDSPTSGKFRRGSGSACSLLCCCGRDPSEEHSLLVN
#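 Tet-induced TRPML1-DL cells, 1,500 per well, cultured overnight, were loaded with a no-wash Ca2+ dye for 45–90 min. Calcium fluorescence was recorded on the FDSS for 110 s after compound addition, before the EC80 agonist (4 uM 54-4) was added.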
# CtBP-E1A blk: qHTS Assay for Inhibitors of the CtBP/E1A Interaction | AID 651724, 2012 | CtBP / adenovirus E1A interaction (AlphaScreen) | AlphaScreen GST-E1A/His-CtBP binding, 1536-well; hits give low values; control for the full effect not named in the record | 340,000 compounds, 0.49% hits | activity change, % (no concentration beside the values); in the data active means activity change below about -65%; inconclusive means about -30% to -65%; inactive means above about -30%; also: % is scaled to controls: 0 for no effect and ±100 for the full control effect
#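 Steps: dispense buffer (Tris pH 8.0, NaCl 300 mM, TCEP 1 mM, BSA, Tween 20); add 5X protein mix (GST-E1A, His-CtBP, 125 nM each); pin 23 nL compound; 2 h at 37 °C, dark; add 5X beads (50 ug/mL); 1 h; read.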
# D2 ag: Beta-Arrestin HTS for Positive Allosteric Modulators of the Human D2 Dopamine Receptor: Agonists. D(2) dopamine receptor (Homo sapiens), P14416. DiscoveRx PathHunter D2 beta-arrestin, luminescence, 90 min; 100% = 57 uM dopamine signal. activation, % (test concentration not listed). 360,000 compounds, 0.084% hits; in the data active = activation above about 40%; inconclusive = about 15% to 40%; inactive = below about 15%; also: compound concentration not given in the record; the text of the record calls up to 30% inactive
# Target sequence (P14416 whole entry, looked up): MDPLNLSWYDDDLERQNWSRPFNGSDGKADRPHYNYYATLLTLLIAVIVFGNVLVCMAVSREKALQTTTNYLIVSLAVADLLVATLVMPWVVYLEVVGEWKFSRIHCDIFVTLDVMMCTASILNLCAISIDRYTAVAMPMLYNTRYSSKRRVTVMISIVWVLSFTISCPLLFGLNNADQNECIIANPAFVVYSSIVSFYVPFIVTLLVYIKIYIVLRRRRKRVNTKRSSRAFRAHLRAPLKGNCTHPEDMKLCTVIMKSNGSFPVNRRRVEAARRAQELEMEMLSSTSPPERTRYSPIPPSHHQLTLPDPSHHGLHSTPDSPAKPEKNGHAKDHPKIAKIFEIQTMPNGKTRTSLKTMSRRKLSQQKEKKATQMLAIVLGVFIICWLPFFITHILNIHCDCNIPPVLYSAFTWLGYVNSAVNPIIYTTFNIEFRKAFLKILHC
#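 DiscoveRx PathHunter D2 beta-arrestin cells (2,100/well) attached overnight, then compound-stimulated 90 min at 37 C in HBSS/10 mM HEPES/0.1% Tween-20 buffer; beta-galactosidase complementation read by luminescence after 1 h at ambient temperature. Dopamine 57 uM final (EC100) as control.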
# TRPML1 blocker: qHTS for Inhibitors of the Human Mucolipin Transient Receptor Potential 1 (TRPML1). Mucolipin-1 (Homo sapiens), Q9GZU1. TRPML1-inducible cells, Ca2+ dye fluorescence, FDSS; hits give low values; inhibition of EC80 agonist-evoked calcium signal. activity change, negative = inhibition, % (concentration not given with the values). 390,000 compounds, 0.02% hits; in the data active means activity change below about -50%; inconclusive means about -30% to -50%; inactive means above about -30%;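 also: stimulus is agonist 54-4 at its EC80 concentration; % is scaled to controls: 0 for no effect and ±100 for the full control effect; the text of the record puts the active cut at -80%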
#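 TRPML1-DL cells, Tet-induced overnight (~16 h, 37 °C) at 1,500 cells/well, were loaded with Ca8 no-wash dye plus quencher for 45-90 min at room temperature. Compounds were pinned during FDSS kinetic reading; agonist 54-4 at EC80 (4 uM final) then added.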
# PINK1 expr mod: A Quantitative High throughput Screen to Identify Chemical Modulators of PINK1 Expression; PINK1 immunofluorescence, high-content cytometry, 24 h; Potency, µM (highest dose often 76.6 µM), for inactives: at the highest dose activation (PINK1 increase), hits mostly activators; 410,000 compounds, 0.2% hits; AID 624263, 2012; active = well fitted activation curve with a large enough effect; inconclusive = small, poorly fitted or top-dose-only effect; inactive = flat fitted curve, though single readings scatter; cell line not stated here;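 also: potency is read from the fitted curve at half-maximal effect; % of control where 0% means no effect; nearly all actives have a fitted effect of over 65% in size; a mitochondrial uncoupler was the plate control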
#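 Measures PINK1 amount and localization on or inside mitochondria by immunofluorescence. Stable cells get compounds at 5 concentrations for 24 hours before fixation and staining; CCCP controls included.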
# * hit, by the source's call; ? = inconclusive; . = no result given; [ ] = dose if it differs, or a comment.
SMILES,Six1-Eya2 inh,TRPML1 ag,CtBP-E1A blk,D2 ag,TRPML1 blocker,PINK1 expr mod
COCCN(Cc1nc2ccccc2c(=O)[nH]1)C(=O)COc1cccc(C(C)=O)c1,-0.2,0.6,.,-1.3,-0.7,0.6%
Cc1cccc(C(=O)N[C@H](C(=O)Nc2nc3ccc(S(C)(=O)=O)cc3s2)C(C)C)c1,-0.5,2.7,0.2,4.4,0.4,3.0%
C#CC[N+](C)(C)C(C#Cc1ccccc1)CC=C (stereo not drawn),0.9,-0.6,-2.5,-4.1,6.0,3.2%
COc1ccc(CNC(=O)Cn2c(=O)nc(-c3ccccc3F)c3cc(Cl)ccc32)cc1,.,0.9,.,.,25.0,-1.3%
O=[N+]([O-])c1ccccc1OCc1nc(-c2cccs2)no1,5.3,-1.0,-4.1,-6.4,-6.0,0.0%
COC(=O)c1cccc(NC(=O)c2cccc(N3C(=O)CCC3=O)c2)c1,-0.7,-1.3,.,-1.9,25.3,1.6%
OCC1(Cc2ccccc2)CCN(Cc2ccc(C(F)(F)F)cc2)CC1,-10.0,2.2,1.7,0.6,6.5,11.5%
Cc1ccc(-c2csc(NC(=O)Cn3cnc4c3c(=O)n(C)c(=O)n4C)n2)cc1C,1.9,0.7,4.0,-2.1,27.7,5.7%
CN(C(=O)CSc1nc(O)cc(=O)n1-c1ccccc1F)c1ccccc1,6.2,0.6,0.9,-3.0,10.2,-1.2%
Cc1ccc(N2C(=O)c3ccc(C(=O)N4CCN(c5ccccc5F)CC4)cc3C2=O)cc1,-11.7,1.6,-22.0,0.2,-12.5,0.5%
O=C1NC[C@@H](CCCCN2C[C@H](Cc3ccc(O)cc3)N(CC3CCCCC3)C(=O)C2=O)N(CC2CCCCC2)C1=O,-0.1,-0.6,-4.0,.,.,1.7%
Cc1ccc(-c2nnn(CC(=O)N(c3ccccc3)C(C(=O)NC3CCCC3)c3ccncc3)n2)o1 (stereo not drawn),6.4,-0.3,17.0,-0.6,4.0,3.1%
Cc1cccc(NC(=O)COn2nnc3ccc(S(C)(=O)=O)cc32)c1,3.8,0.9,13.9,-0.8,-4.1,0.8%
COc1ccc(N(C(=O)C2CCCCC2)S(=O)(=O)c2cccc3cccnc23)cc1,10.9,3.0,-5.5,0.0,53.0,2.0%
CC1(C)CC(=O)C=C(c2ccc(-c3ccc(OC(F)(F)F)cc3)cc2)C1=O,-22.8,1.9,-10.9,-1.7,21.1,4.1%
C#Cc1cccc(Nc2nc(NCc3ccccc3OC)nc3ccsc23)c1,-3.8,-0.7,-15.1,13.7,.,?
CN1C(=O)CC(C(=O)O)SC1=Nc1cc(Cl)cc(Cl)c1 (stereo not drawn),5.0,0.7,-17.8,-0.4,6.5,2.2%
Cc1ccccc1NC(=O)COC(=O)c1c(-c2ccccc2)noc1C,3.2,6.0,0.6,4.8,15.3,-0.2%
FC(F)(F)c1ccc(-c2cccc3c2C2CC3CCN2Cc2ccccc2)cc1 (stereo not drawn),3.8,1.4,-9.9,-0.9,-3.8,2.8%
COc1ccc(C(=O)Nc2ccc(C(=O)NCC3CCCO3)cc2)c(OC)c1OC (stereo not drawn),-9.5,0.4,-1.4,1.1,11.9,0.7%
CC(=O)Nc1ccc(S(=O)(=O)Nc2nccc(C)n2)cc1,6.8,-0.4,.,2.1,7.9,0.4%
CCn1c(Sc2nc(C)nc3scc(-c4cccs4)c23)n[nH]c1=O,-1.4,-0.2,-1.5,-0.5,8.7,-1.8%
CCCSc1nc(O)c(C2OC(=O)c3c2ccc(OC)c3OC)c(=O)n1-c1ccccc1 (stereo not drawn),1.0,-0.9,4.6,-4.0,-12.2,-0.1%
CCc1cc(=O)oc2cc(C)c3c(C)coc3c12,1.9,-0.2,-1.0,-2.4,14.3,-3.2%
CSc1ccc(/C=C(\NC(=O)c2ccccc2)C(=O)NN)cc1,-0.8,1.6,-2.1,0.9,-0.4,-1.3%
c1ccc2c(-c3nc(C4CCCCC4)no3)cc(-c3ccncc3)nc2c1,2.2,2.7,-4.2,-0.6,17.0,?
CCOC(=O)C1=CCN(S(=O)(=O)c2ccccc2F)C1c1cccc(Br)c1 (stereo not drawn),1.3,0.3,8.8,-6.2,.,3.5%
COc1ccc(C(=O)NCCc2c[nH]c3ccccc23)cc1S(=O)(=O)N1CCCCC1C (stereo not drawn),0.0,2.2,-6.6,2.0,27.1,2.3%
COCCCN1C(=O)C(CC(=O)NCCN2CCOCC2)CC(C(=O)N2CCCCCC2)=C1C (stereo not drawn),4.1,-0.1,6.1,.,.,-0.5%
C=CCn1c(SCC(=O)Nc2ccc(N(C)C)cc2)nnc1-c1cccc(C)c1,-22.7,1.8,-27.6,4.1,-7.9,1.8%
O=C(CCl)N1CCN2C(=O)c3ccccc3C12c1ccc(Cl)cc1 (stereo not drawn),-1.1,-0.7,-0.9,-1.6,-6.1,-1.3%
CC(C)(C)OC(=O)N/N=C\C=C\c1ccc2c(c1)OCO2,-15.5,0.2,-6.4,3.4,3.8,5.7%
CCC(=O)NC(c1ccc([N+](=O)[O-])cc1)c1c(O)ccc2ccccc12 (stereo not drawn),-8.0,3.2,-13.2,-4.7,-9.4,4.6%[38.3 µM]
COc1ccc(CNC(=O)c2c(C)oc3c2C(=O)c2ccccc2C3=O)cc1,-22.4,-0.4,-27.8,11.6,4.3,-0.9%
NS(=O)(=O)c1ccc(CCNC(=O)c2cnc(Cl)c(Cl)c2)cc1,2.1,0.3,-2.6,4.5,40.2,1.3%
O=C(COc1coc(CN2CCCc3ccccc32)cc1=O)Nc1cccc([N+](=O)[O-])c1,-5.8,0.2,2.6,5.4,8.5,3.5%
Cc1ccc(CNC(=O)C2CCN(c3nc(C)cc(C)n3)CC2)cc1,-3.8,-0.1,4.3,-1.0,8.9,1.1%
Cc1nc2ccc(S(=O)(=O)CCC(=O)Nc3ccccc3C)cc2s1,.,-0.6,.,.,5.9,1.8%
O=C(NCCNC(=O)c1cnccn1)c1cccc(Cl)c1,-1.1,0.2,6.4,-2.0,-7.4,-0.1%
O=C(COC(=O)c1c[nH]c2ccccc12)NC1CCCC1,-7.8,-0.2,.,-3.3,-12.6,-0.4%

# An excerpt from above in order of SMILES length, lowest first:
SMILES,Six1-Eya2 inh,TRPML1 ag,CtBP-E1A blk,D2 ag,TRPML1 blocker,PINK1 expr mod
O=C(NCCNC(=O)c1cnccn1)c1cccc(Cl)c1,-1.1,0.2,6.4,-2.0,-7.4,-0.1%
O=C(COC(=O)c1c[nH]c2ccccc12)NC1CCCC1,-7.8,-0.2,.,-3.3,-12.6,-0.4%
CC(C)(C)OC(=O)N/N=C\C=C\c1ccc2c(c1)OCO2,-15.5,0.2,-6.4,3.4,3.8,5.7%

# Additional compounds follow:
SMILES,Six1-Eya2 inh,TRPML1 ag,CtBP-E1A blk,D2 ag,TRPML1 blocker,PINK1 expr mod
COc1cc2cc(C(=O)NCCc3c[nH]c4ccccc34)c(N)nc2cc1OC,-10.3,23.0,-10.1,.,.,11.5%
COc1ccc(N2CC(C(=O)Nc3nnc(SCc4ccccn4)s3)CC2=O)cc1 (stereo not drawn),0.1,0.4,5.5,0.0,4.6,0.7%
COc1ccc(-c2nnc(SCC(=O)Nc3nncs3)o2)cc1,3.9,-0.8,-3.6,6.9,3.9,28.2%
CN(C)C(=S)Nc1ccc2c(c1)OCCO2,10.7,0.4,-3.1,-19.9,?,2.6%
CC(/C=N/NC(=O)c1cc(C2CC2)[nH]n1)=C\c1ccccc1,0.3,5.5,-3.0,-2.9,14.0,5.4%
CCCCN(C)C(=O)c1sc(=O)n(Cc2c(C)cccc2C)c1C,6.6,-1.0,7.9,3.8,.,-0.4%
COc1ccc(C(C#N)c2cnccn2)cc1OC (stereo not drawn),13.3,0.4,-16.6,-1.9,14.9,0.6%
CCOC(=O)C(=Cc1ccccc1OC)C(=O)OCC,2.4,0.6,-2.0,0.6,16.8,11.3%
Cc1ccc2[nH]c(=O)c(CN(Cc3ccc4c(c3)OCO4)Cc3nnnn3Cc3ccco3)cc2c1,-18.7,1.7,-15.7,-3.7,-8.7,-0.1%
Cc1cc(C)nc(NS(=O)(=O)c2ccc(NC(=O)c3ccc(O)cc3O)cc2)n1,-12.7,0.4,-8.7,2.9,25.2,-0.9%
Cc1cccc(-n2c(=O)c3c(c4cc(C)ccc4n3C)n(CC(=O)Nc3ccccc3C(F)(F)F)c2=O)c1,.,0.2,.,.,-8.0,0.4%
CN(C)c1ccc(CNc2ncc(Br)cc2Br)cc1,-65.9*,-0.2,?,-4.2,2.3,0.1%
CC1=Nc2ccc3ccccc3c2C1(C)C,11.2,0.5,1.4,0.0,-1.5,4.1%
COc1ccc(/C(C)=N/NC(=O)c2ccncc2)cc1,1.0,-0.6,.,-1.2,1.0,-0.3%
CCc1nnc2cccc(Cl)n12,2.9,0.1,.,1.6,13.6,-0.9%
COc1ccccc1N(CC(=O)NC1CCCCC1)S(C)(=O)=O,9.1,-0.2,7.1,0.7,-2.5,.
Cc1ccn2c(C(C)O)nnc2c1 (stereo not drawn),-11.4,-0.6,-6.0,-2.5,12.5,1.3%
Cn1cc(C(=O)Nc2cccc(F)c2)cn1,4.1,-0.6,3.4,3.8,-9.8,-1.8%
O=C(NC1CC(=O)N(c2cccc(F)c2)C1)c1cccs1 (stereo not drawn),.,-0.5,.,.,-2.5,1.0%
CC1Cc2cc(S(=O)(=O)NCCC(=O)NCc3ccc(F)cc3)ccc2N1C(=O)C1CC1 (stereo not drawn),3.8,0.0,5.3,-11.4,24.3,0.2%
CCOC(=O)[C@@H]1[C@H]2COc3ccc(Br)cc3[C@H]2N2C(=O)N(c3ccc(OC)cc3)C(=O)[C@]12C,-6.3,-0.4,-1.1,-1.9,-7.7,1.6%
CCn1c(O)c(N=NC(=O)Cn2ccc(C(F)(F)F)n2)c2ccccc21,1.5,1.7,-13.7,-2.0,-17.6,1.5%
CCCCCCCC[n+]1cccc2c3ccccc3ccc21,0.2,1.2,.,-1.5,-28.6,25.1µM*
Cc1cc(OCc2ccc(C(=O)NN=C3CCCC3)cc2)ccc1Cl,-1.5,-0.2,0.0,5.4,-4.9,1.7%
CCC1(C)Cc2[nH]c(=O)c(C#N)cc2CO1 (stereo not drawn),-6.5,1.2,-0.7,0.8,-10.0,-0.9%
Cc1ccc(-n2c(Cl)c(Cl)nc(Cl)c2=O)cc1,-8.3,9.8,-15.2,-9.7,-9.2,-4.1%
CCOc1ccc(N(C(=O)c2snc(C(N)=O)c2N)C(C)C(=O)NC2CCCCC2)cc1 (stereo not drawn),4.9,2.5,0.6,5.7,-6.2,-0.2%
O=C(COc1ccccc1)NCC(c1cccs1)S(=O)(=O)c1ccc(Cl)cc1 (stereo not drawn),.,-0.1,.,.,-18.3,0.5%

# Outcome played no part in choosing rows; about 1% have a hit in one of these screens.
